Screening results from PubChem BioAssay.
miR-21 FLuc = qHTS Assay for Modulators of miRNAs and/orActivators of miR-21 | 340,000 tested, under 10 active | HeLa miR-21 FLuc reporter, luciferase, 48 h | Potency, µM (highest dose often 38.3 µM), for inactives: at the top dose reporter change, positive = more light; active = well fitted rising curve with a large enough effect; inconclusive = small, poorly fitted or top-dose-only effect; inactive = no such curve, though single readings can be large or run the other way;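 note: % of control where 0% means no effect; miR-21 action dims this reporter so a rising signal means less miR-21 action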
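HeLa miR-21-FLuc reporter line, endogenous miR-21; 2000 cells/well in DMEM/10% FBS; compound titration up to ~40uM final, 48 h, 37 degree Celsius; luciferase detection reagent, 15 min lysis, CCD luminescence.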
Rango complex inh = qHTS Assay for Inhibitors of Rango (Ran-regulated importin-beta cargo) - Importin beta complex formation; Importin subunit beta-1 (Homo sapiens), Q14974; Rango CFP/YFP FRET sensor + importin beta, 45 min; Potency, µM (titrated, usually from 92.2 µM), inactives show top-dose inhibition of complex formation; 0.031% of 340,000 active; AID 540263, 2011; active = rising FRET ratio curve, often small or poorly fitted; inconclusive = mostly compound fluorescence or quenching in the first reads; inactive = flat curves in all reads;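 note: potency is the fitted concentration of half-maximal effect; 0% = DMSO wells and 100% = buffer wells lacking importin beta; nearly all actives have a fitted effect of over 15% in size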
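Inhibition scored from the CFP 486 nm/YFP 530 nm FRET ratio 45 min after adding 0.125 microM importin beta to 50 nM Rango biosensor preincubated 5 min with compound (room temperature, PBS with DTT, Tween-20, BSA). No-importin wells as positive control.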
Rango release inh = qHTS Assay for Inhibitors of RanGTP induced Rango (Ran-regulated importin-beta cargo) - Importin beta complex dissociation; Biochemical FRET Rango-importin beta, RanGTP-induced dissociation; Potency, µM (titrated, usually from 46.1 µM), for inactives: at the top dose activity change, negative = inhibition; Snurportin-1 (Homo sapiens) + GTP-binding nuclear protein Ran (Homo sapiens) + Importin …; AID 540253, 2011; 0.071% of 340,000 active; active means falling FRET ratio curve, often poorly fitted, with flat reads before Ran was added; inconclusive means other falling curves, or compound fluorescence or quenching; inactive means flat or rising ratio curve;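 note: potency is the fitted concentration of half-maximal effect; % of control where 0% means no effect; nearly all actives have a fitted effect of over 45% in size; -100% = wells without RanGTP and RCC1; the record marks most hits as doubtful in a second field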
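FRET read at 45 min, room temperature: inhibitors block the CFP/YFP signal rise when RanGTP (0.6 uM Ran, 2 mM GTP, 0.2 uM RCC1) frees Rango (0.1 uM) from importin beta (0.25 uM). Pre-read after 5 min compound exposure flags interference.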
GLA inh pH 4.5 = qHTS Assay for Inhibitors of Human alpha-Galactosidase at pH 4.5; Alpha-galactosidase A (Homo sapiens), P06280; 230,000 tested, under 10 active; AID 1467, 2008; activity change, negative = inhibition, % at 105 µM; purified enzyme, 4-MU-alpha-Gal fluorescence, pH 4.5; inconclusive = small, poorly fitted or top-dose-only inhibition, or a rising curve; inactive = flat fitted curve, though single readings scatter; no compound was filed as active;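 note: 0% = full activity with enzyme and -100% = basal without enzyme; dose as in the result columns while the protocol names 77 µM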
Target sequence (P06280 whole entry, looked up): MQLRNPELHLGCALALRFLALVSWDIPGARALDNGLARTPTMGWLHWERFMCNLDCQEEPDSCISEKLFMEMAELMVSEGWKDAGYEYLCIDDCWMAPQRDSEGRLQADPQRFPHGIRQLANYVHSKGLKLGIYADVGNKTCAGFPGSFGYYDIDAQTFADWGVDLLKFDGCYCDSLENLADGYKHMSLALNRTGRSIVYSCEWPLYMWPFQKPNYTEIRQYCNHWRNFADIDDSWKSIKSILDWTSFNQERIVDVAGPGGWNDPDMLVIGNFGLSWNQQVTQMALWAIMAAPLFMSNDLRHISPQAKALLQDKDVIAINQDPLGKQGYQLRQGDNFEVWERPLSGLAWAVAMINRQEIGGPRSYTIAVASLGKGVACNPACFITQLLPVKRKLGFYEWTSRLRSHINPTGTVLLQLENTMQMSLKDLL
* hit, by the source's call. An excerpt; count on the stated rates, not on these rows.

For COc1ccc(-c2noc(N3CCC(C(=O)NCCCN4CCCC(C)C4)CC3)n2)cc1 (configuration not stated) the results were miR-21 FLuc -15%, Rango complex inh -0.3% and Rango release inh -3%.
Screening CCc1ccc(C2c3[nH]c4ccccc4c3CCN2C(=O)CNC(N)=O)cc1 (configuration not stated) returned miR-21 FLuc -1%, Rango complex inh 1.4%, Rango release inh -6% and GLA inh pH 4.5 -10.
`CS(=O)(=O)Nc1ccccc1C(=O)O` gave miR-21 FLuc 1%, Rango complex inh 3.5%, Rango release inh 15% and GLA inh pH 4.5 0.
`COc1ccccc1OC(C)C(=O)Nc1ccc(S(=O)(=O)N2CCN(C)CC2)cc1` (configuration not stated) gave miR-21 FLuc 0%, Rango complex inh -1.1% and Rango release inh 11%.
For CCN(CC)c1ccc(C(=O)NNC(=O)CCNC(=O)c2ccccc2)cc1 the results were Rango complex inh -0.8% and Rango release inh -5%.
CCCc1ccc2c(N)c(C#N)sc2n1 was read as miR-21 FLuc -43%, Rango complex inh 5.1%, Rango release inh 3% and GLA inh pH 4.5 4.
O=[N+]([O-])c1ccc(Cl)c(/C=N/n2c(C3CCCCC3)n[nH]c2=S)c1 was read as miR-21 FLuc 0%, Rango complex inh 0.9%, Rango release inh 0% and GLA inh pH 4.5 4.
For Cc1ccc(C(=O)N2CCN(S(=O)(=O)c3ccccc3)CC2)s1 the results were Rango complex inh -0.4% and Rango release inh 9%.
For COc1ccc(C2C3=C(CC(C)(C)CC3=O)Oc3ncn4nc(-c5cccnc5)nc4c32)cc1 (configuration not stated) the results were Rango complex inh -3.6% and Rango release inh -8%.
For Cc1c(Cl)cnc(NC(=O)COC(=O)c2ccc3ncsc3c2)c1Cl the results were miR-21 FLuc -8%, Rango complex inh -1.9%, Rango release inh -17% and GLA inh pH 4.5 -6.
For O=[N+]([O-])c1ccc(Cl)cc1N1CCCC1 the results were miR-21 FLuc 4%, Rango complex inh 3.3%, Rango release inh 9% and GLA inh pH 4.5 2.
`Cn1c(N)c(C(=O)COC(=O)COc2ccc(C#N)cc2)c(=O)n(C)c1=O` gave miR-21 FLuc -1%, Rango complex inh -1.0%, Rango release inh 44% and GLA inh pH 4.5 3.
Screening O=C(Cc1cccc2ccccc12)Nc1cccnc1 returned miR-21 FLuc -2%, Rango complex inh 0.7%, Rango release inh -11% and GLA inh pH 4.5 0.
For Cn1ccnc1C(=O)c1ccc(Cl)c(S(=O)(=O)N2CCOCC2)c1 the results were miR-21 FLuc -2%, Rango complex inh 4.1%, Rango release inh -17% and GLA inh pH 4.5 3.
For O=C(COc1ccccc1[N+](=O)[O-])N1CCN(S(=O)(=O)c2ccccc2)CC1 the results were miR-21 FLuc 1%, Rango complex inh 0.2%, Rango release inh -11% and GLA inh pH 4.5 10.
For CCCCc1ccc(-c2nc(-c3ccncc3)no2)cc1 the results were miR-21 FLuc -46%, Rango complex inh -1.6%, Rango release inh -8% and GLA inh pH 4.5 0.
Clc1cccc(CNc2nc(-c3cccnc3)nc3ccccc23)c1 was read as miR-21 FLuc -7%, Rango complex inh 13% and Rango release inh 11%.
Screening COC(=O)C1=C(C)N(Cc2ccccc2)C(=NCc2cccc(C(F)(F)F)c2)N[C@H]1c1cccc(F)c1 returned miR-21 FLuc inconclusive, Rango complex inh -4.8% and Rango release inh -18%.
For NS(=O)(=O)c1ccc(N2CCOCC2)c(C(=O)NCCCSc2ccccc2)c1 the results were Rango complex inh -2.0% and Rango release inh 5%.
For CCCCn1c(CN2CCN(C)CC2)nc2ccccc21 the results were miR-21 FLuc -1%, Rango complex inh 0.3%, Rango release inh -6% and GLA inh pH 4.5 -9.
Screening CCN(C(=O)Cn1cc(C(F)(F)F)ccc1=O)c1c(N)n(Cc2ccccc2)c(=O)[nH]c1=O returned miR-21 FLuc 2%, Rango complex inh 2.2%, Rango release inh -9% and GLA inh pH 4.5 -1.
`CCc1ccc(C(=O)COC(=O)C(CCSC)NC(=O)c2ccccc2)cc1` (configuration not stated) gave miR-21 FLuc -3%, Rango complex inh -3.7%, Rango release inh 21% and GLA inh pH 4.5 6.
`O=C(COc1cccc2ccccc12)Nc1nc2ccccc2[nH]1` gave miR-21 FLuc -3%, Rango complex inh 0.4%, Rango release inh -2% and GLA inh pH 4.5 -8.
For COC(=O)c1ccc(NS(=O)(=O)c2cc(C)ccc2OC)cc1 the results were miR-21 FLuc -5%, Rango complex inh 5.1%, Rango release inh 7% and GLA inh pH 4.5 3.
`COC(=O)c1cc(C)sc1NC(=O)CN1CCN(C(=O)c2ccco2)CC1` gave miR-21 FLuc 9%, Rango complex inh 4.0% and Rango release inh 3%.
Cc1ccc(C(C(=O)NC2CCCC2)N(C(=O)Cc2cccs2)c2ccc(C)c(C)c2)o1 (configuration not stated) was read as miR-21 FLuc 12%, Rango complex inh 8.1%, Rango release inh 22% and GLA inh pH 4.5 -10.
Screening COc1cc(C(=O)O)ccc1OCc1ccncc1 returned miR-21 FLuc -1%, Rango complex inh 0.2% and Rango release inh 27%.
Screening COCc1cc(=O)n2[nH]c(C)nc2n1 returned miR-21 FLuc -5%, Rango complex inh 2.5%, Rango release inh 4% and GLA inh pH 4.5 0.
Cc1c(CCC(=O)O)c(=O)oc2cc(OCc3ccccc3Br)ccc12 was read as miR-21 FLuc 8%, Rango complex inh 1.5% and Rango release inh -7%.
Screening O=C(Nc1ccncc1)c1c(F)cccc1F returned miR-21 FLuc 27%, Rango complex inh 0.7%, Rango release inh 0% and GLA inh pH 4.5 4.

Reprinted at random: two records from the list, in no set order.
Screening COCc1cc(=O)n2[nH]c(C)nc2n1 returned miR-21 FLuc -5%, Rango complex inh 2.5%, Rango release inh 4% and GLA inh pH 4.5 0.
`CCc1ccc(C(=O)COC(=O)C(CCSC)NC(=O)c2ccccc2)cc1` (configuration not stated) gave miR-21 FLuc -3%, Rango complex inh -3.7%, Rango release inh 21% and GLA inh pH 4.5 6.

The listing continues:
For COc1cccc(C(=O)n2ccc(-c3cccs3)n2)c1 the results were miR-21 FLuc -9%, Rango complex inh -2.8%, Rango release inh 1% and GLA inh pH 4.5 -24.
For CC(=O)Nc1nnc(SCc2cc(=O)c(OC(=O)c3ccccc3)co2)s1 the results were miR-21 FLuc 1%, Rango complex inh -1.0%, Rango release inh 24% and GLA inh pH 4.5 -3.
NC(=O)c1ccc(Sc2nnc(-c3cccs3)n2CC2CCCO2)c([N+](=O)[O-])c1 (configuration not stated) was read as miR-21 FLuc 1%, Rango complex inh 3.7%, Rango release inh 18% and GLA inh pH 4.5 0.
Screening c1ccc(-c2ccccc2OCCCN2CCCCC2)cc1 returned miR-21 FLuc -3%, Rango complex inh 1.7%, Rango release inh -10% and GLA inh pH 4.5 -8.
COC(=O)c1cnc(NNS(=O)(=O)c2ccc(Cl)cc2)nc1C(F)(F)F was read as miR-21 FLuc 7%, Rango complex inh -0.3%, Rango release inh -1% and GLA inh pH 4.5 -8.
CN(CC(=O)Nc1cccc(F)c1)C(=O)CCc1nc2ccccc2c(=O)[nH]1 was read as Rango complex inh -1.7% and Rango release inh 16%.
`CC(NC(=O)CCc1ccccc1)c1ccc2c(c1)OCO2` (configuration not stated) gave miR-21 FLuc 0%, Rango complex inh -0.3% and Rango release inh 1%.
`COc1cccc(NC(=O)COC(=O)c2ccc3ccccc3n2)c1` gave Rango complex inh inconclusive and Rango release inh -8%.
CC(=O)Nc1ccc(S(=O)(=O)NNc2ccc([N+](=O)[O-])cc2)cc1 was read as miR-21 FLuc 6%, Rango complex inh -5.1% and Rango release inh 10%.
Screening Cc1ccc(NC(=O)c2cnccn2)cc1 returned miR-21 FLuc -57%, Rango complex inh 0.1%, Rango release inh 8% and GLA inh pH 4.5 5.
Screening Cn1cccc1CC(=O)N/N=C\c1ccccc1 returned miR-21 FLuc -5%, Rango complex inh -0.2%, Rango release inh -10% and GLA inh pH 4.5 -1.
CCC(C)C(=O)Nc1nc(-c2ccc3c(c2)NC(=O)CO3)cs1 (configuration not stated) was read as miR-21 FLuc -7%, Rango complex inh -3.5%, Rango release inh -1% and GLA inh pH 4.5 1.
Screening CCn1c(=O)c(C(=O)CN2CCCc3ccccc32)c(N)n(Cc2ccccc2)c1=O returned miR-21 FLuc -3%, Rango complex inh inconclusive, Rango release inh -20% and GLA inh pH 4.5 -13.
Screening O=C(c1cc(C2CC2)nn1-c1ccccc1)N1CCN(c2ccccc2O)CC1 returned Rango complex inh 0.2% and Rango release inh 0%.
`O=c1[nH]c2ccc(S(=O)(=O)Nc3ccc(Cl)cc3)cc2o1` gave miR-21 FLuc 3%, Rango complex inh 4.0% and Rango release inh -4%.
`O=C(Nc1cccnc1)c1cccc(NC(=O)c2ccco2)c1` gave miR-21 FLuc 3%, Rango complex inh -1.0%, Rango release inh 5% and GLA inh pH 4.5 1.
O=C(CCNC(=O)c1ccc(Br)o1)NCc1ccccc1Cl was read as miR-21 FLuc -1%, Rango complex inh -4.4%, Rango release inh -3% and GLA inh pH 4.5 0.
Screening Cc1ccc2nc(N(CCCN(C)C)C(=O)CCc3ccccc3)sc2c1 returned miR-21 FLuc inconclusive, Rango complex inh -1.7%, Rango release inh 2% and GLA inh pH 4.5 -8.
`O=C(CCC(=O)N1CCOc2ccc(Cl)cc21)NCCN1CCOCC1` gave miR-21 FLuc -8%, Rango complex inh -2.7% and Rango release inh -13%.
COc1ccc(NC(=O)CCS(=O)(=O)c2cccc3nonc23)cc1 was read as miR-21 FLuc -5%, Rango complex inh -0.1%, Rango release inh 7% and GLA inh pH 4.5 0.
N#C/C(=C\c1cccnc1)C(=O)NC1CCCCC1 was read as miR-21 FLuc 0%, Rango complex inh -0.2%, Rango release inh 14% and GLA inh pH 4.5 -3.
COc1ccc(C2CC(c3cccs3)=NN2C(=O)CSc2nc(=O)n3ccc(C)cc3n2)cc1 (configuration not stated) was read as Rango complex inh 3.0% and Rango release inh 0%.
Screening O=C(COC(=O)Cn1c(C(F)(F)F)nc2ccccc21)Nc1ccc2c(c1)OCCO2 returned miR-21 FLuc 0%, Rango complex inh -1.6%, Rango release inh 0% and GLA inh pH 4.5 9.
For CCCC(=O)N1CCN(c2ccc(NC(=O)c3cccs3)cc2)CC1 the results were miR-21 FLuc -10%, Rango complex inh -1.6%, Rango release inh 4% and GLA inh pH 4.5 7.
For COc1ccccc1C(=O)NNC(=O)C1CCN(C(=O)OC(C)(C)C)CC1 the results were miR-21 FLuc 1%, Rango complex inh -1.7% and Rango release inh 8%.
`C=CC[C@@H](CC(=O)N(CCO)Cc1ccccc1)C(=O)N[C@H](COC(=O)[C@@H](CC=C)Cc1ccc(F)cc1)c1ccccc1` gave Rango complex inh -2.4% and Rango release inh 0%.
Screening CN(c1ccc(OC(=O)c2ccc(-n3cncn3)c([N+](=O)[O-])c2)cc1)S(=O)(=O)c1ccccc1 returned Rango complex inh 0.2% and Rango release inh 8%.
Screening COc1ccc(CC(=O)NCc2nnc(SCC(=O)Nc3ccccc3)n2C)cc1 returned miR-21 FLuc -6%, Rango complex inh 0.4%, Rango release inh 1% and GLA inh pH 4.5 3.
COc1ccc(CN(C(=O)Cn2nnc(-c3ccc(C)o3)n2)C(C(=O)NCC2CCCO2)c2ccco2)cc1 (configuration not stated) was read as miR-21 FLuc -1%, Rango complex inh -2.0%, Rango release inh 1% and GLA inh pH 4.5 0.
Screening O=C(O)c1[nH]c2ccc([N+](=O)[O-])cc2c1-c1ccccc1 returned miR-21 FLuc -1%, Rango complex inh -2.5%, Rango release inh -7% and GLA inh pH 4.5 -6.
Screening CCOC(=O)c1nn(-c2ccc(Cl)cc2)cc1O returned miR-21 FLuc -40%, Rango complex inh 3.7%, Rango release inh 35% and GLA inh pH 4.5 0.
For c1ccc(OCc2nn3c(-c4ccncc4)nnc3s2)cc1 the results were miR-21 FLuc 0%, Rango complex inh inconclusive, Rango release inh 0% and GLA inh pH 4.5 3.
Screening Clc1ccc2c(N/N=C/c3ccc(Br)cc3)ccnc2c1 returned miR-21 FLuc -12%, Rango complex inh -1.6%, Rango release inh 0% and GLA inh pH 4.5 3.
